High-throughput results from PubChem BioAssay.
AmpC nodet inh = inhibitors of E. coli AmpC beta-lactamase without detergent; Potency, µM (top dose mostly 28.7 µM), for the others: at the highest dose activity change, negative = inhibition; AmpC nitrocefin hydrolysis, absorbance 480 nm, no detergent; potencies from a single point are estimates; AID 585; hit rate 1.8% among 71,000; active = falling curve, for most hits resting on a single point; inconclusive = weak or doubtful change; inactive = flat or rising curve; further: % of control where 0% means no effect; about half of the hits show no inhibition at the top dose; a quarter of the inactives give rising signals
Target sequence (P00811 whole entry, looked up): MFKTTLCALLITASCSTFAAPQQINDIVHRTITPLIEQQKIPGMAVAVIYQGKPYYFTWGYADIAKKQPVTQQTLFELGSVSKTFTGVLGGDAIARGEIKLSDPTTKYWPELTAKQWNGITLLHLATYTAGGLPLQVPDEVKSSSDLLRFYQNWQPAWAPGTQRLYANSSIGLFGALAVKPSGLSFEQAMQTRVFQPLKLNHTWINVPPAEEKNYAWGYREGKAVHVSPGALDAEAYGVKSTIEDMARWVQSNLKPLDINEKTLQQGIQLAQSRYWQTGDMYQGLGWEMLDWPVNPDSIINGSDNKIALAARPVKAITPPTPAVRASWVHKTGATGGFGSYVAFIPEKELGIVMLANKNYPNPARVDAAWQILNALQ
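Enzyme, pH 7.0 phosphate. Compound titrations were pre-incubated with AmpC for 15 min at room temperature before nitrocefin (stock 800 uM) addition; product formation was recorded at 480 nm every 20 s for 4 min.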
Numbers without * were called inactive; & = joins results of further samples; [ ] = another dose, or the depositor's remark. Potency means the concentration at half of the fitted maximal effect. This is a subset, so the mix of outcomes need not match the whole.

How did O=C(NCCN1CCOCC1)c1cc(-c2ccc(F)cc2)on1 do in these assays?
AmpC nodet inh: 7%

What do the screens show for `CCN(CC)CCn1c(NCc2ccc(OC)cc2)nc2ccccc21`?
AmpC nodet inh: 14%

What do the screens show for `CC(=O)Nc1ccc(S(=O)(=O)N(C)c2ccccc2)cc1`?
AmpC nodet inh: 6%

How did CCOC(=O)N1CCC(NC(=O)c2cnn3c(C(F)(F)F)cc(-c4cccc(OC)c4)nc23)CC1 do in these assays?
AmpC nodet inh: 97%

What do the screens show for `CC(NC(=O)c1ccco1)C(c1cccs1)N1CCN(c2ccccc2)CC1` (stereo unspecified)?
AmpC nodet inh: 84%

How did COc1ccc(C(=O)N2CCC3(CC2)CN(C(=O)NC(C)C)C3)cc1 do in these assays?
AmpC nodet inh: 12%

How did Clc1ccc(-c2noc(CN3CCN(c4ccccc4)CC3)n2)cc1 do in these assays?
AmpC nodet inh: 19%

How did O=C(c1ccc2c(=O)n(Cc3ccc4c(c3)OCO4)c(=S)[nH]c2c1)N1CCC2(CC1)OCCO2 do in these assays?
AmpC nodet inh: 106%

What do the screens show for `Cc1ccc(C(=O)NCCNS(=O)(=O)c2ccccc2)cc1`?
AmpC nodet inh: 2%

What do the screens show for `O=C(c1ccco1)N1CCN(c2ncnc3scc(-c4cccs4)c23)CC1`?
AmpC nodet inh: -8%

What do the screens show for `O=C1c2ccccc2C(Nc2cccnc2)N1Cc1ccc2c(c1)OCO2` (stereo unspecified)?
AmpC nodet inh: 3.2µM*[single pt active]

What do the screens show for `O=C(NCc1ccc2c(c1)OCO2)C1CC(=O)N(C2CCCC2)C1` (stereo unspecified)?
AmpC nodet inh: 4%

What do the screens show for `O=C(NCc1ccco1)c1cnn2c(C(F)(F)F)cc(-c3ccccc3)nc12`?
AmpC nodet inh: 56%

Results for CC(C)(C)OC(=O)N1CCCC1C(=O)N1CCCC1C(=O)N1CCCC1C(=O)O (stereo unspecified) ?
AmpC nodet inh: 1%

How did COCCn1c(CNc2ccc(F)cc2)nnc1SCC(=O)Nc1ccc(OC)cc1OC do in these assays?
AmpC nodet inh: 69%

What do the screens show for `O=C(NCCNC(=O)c1ccc(Br)o1)c1ccc(Br)o1`?
AmpC nodet inh: -2%

Results for COC(=O)c1oc2ccc(Br)cc2c1NC(C)=O ?
AmpC nodet inh: 16%

How did CCn1cc(C(=O)NCCCN2CCC(C)CC2)c(=O)c2cc(S(=O)(=O)N3CCCC3)ccc21 do in these assays?
AmpC nodet inh: 25%

How did Cc1ccc(C)c(S(=O)(=O)N2CCN(CC(=O)NC(=O)NCc3ccccc3)CC2)c1 do in these assays?
AmpC nodet inh: 93%

What do the screens show for `COc1cc(C2NC(=O)NC(O)(C(F)(F)F)C2C(=O)c2cccs2)ccc1O` (stereo unspecified)?
AmpC nodet inh: -6%

How did CC(=O)c1cccc(NC2c3ncccc3C(=O)N2Cc2ccco2)c1 (stereo unspecified) do in these assays?
AmpC nodet inh: 20%

Results for O=C(NCc1ccco1)C(c1cccnc1)N(C(=O)Cn1nnc2ccccc21)c1ccc(F)cc1 (stereo unspecified) ?
AmpC nodet inh: 35%

Results for N#Cc1ccc(CSc2ncnc3c2cnn3Cc2ccccc2)cc1 ?
AmpC nodet inh: 1%

How did CN(CCC#N)S(=O)(=O)c1ccc2c(c1)c(=O)n(C)c(=O)n2C do in these assays?
AmpC nodet inh: -18%

What do the screens show for `CCCCCCn1c(N(CC)CC)nc2c1c(=O)[nH]c(=O)n2C`?
AmpC nodet inh: 23%

How did C1CCC2(CC1)C1=C(CCCC1)Nc1nnnn12 do in these assays?
AmpC nodet inh: -4%

How did CCOC(=O)c1ccc(NC(=O)NCc2ccn(CC)n2)cc1 do in these assays?
AmpC nodet inh: -4%

What do the screens show for `CCCn1c(=O)[nH]c2nc(-c3ccc(S(=O)(=O)O)cc3)[nH]c2c1=O`?
AmpC nodet inh: 1%

Results for Cc1ccc(-c2noc(CSc3nnc(-c4ccccc4)n3C)n2)cc1 ?
AmpC nodet inh: 36%

Results for O=C(CSc1ccccc1)Nc1ccc(S(=O)(=O)NCC2CCCO2)cc1 (stereo unspecified) ?
AmpC nodet inh: -18%

Results for CN(C)C(=O)c1ccc(-c2nc(NCc3cccnc3)c3ccccc3n2)cc1 ?
AmpC nodet inh: 54%

What do the screens show for `COC(=O)c1c(NC(=O)CN2CCN(c3ccccc3OC)CC2)c2cc(C)ccc2n1C`?
AmpC nodet inh: 136%

How did Cc1cc(C)n(-c2c(F)c(F)c(CN3CCOCC3)c(F)c2F)n1 do in these assays?
AmpC nodet inh: 9%

Results for Cn1c(=O)c2c(ncn2C)n(C)c1=O ?
AmpC nodet inh: 1%&-2%&5%

Results for O=C(O)CCc1nc(-c2ccccc2)c(-c2ccccc2)o1 ?
AmpC nodet inh: -4%[5.75 µM]

How did O=C(O)CCC(=O)N1CCc2cc(S(=O)(=O)NC3CCCc4ccccc43)ccc21 (stereo unspecified) do in these assays?
AmpC nodet inh: 1%

What do the screens show for `COc1cccc(S(=O)(=O)Nc2cccnc2)c1`?
AmpC nodet inh: 1%

What do the screens show for `COC(=O)c1ccccc1NC(=O)c1cncc(Br)c1`?
AmpC nodet inh: 3%

What do the screens show for `O=C(OCc1nc2ccccc2s1)c1ccc(Br)s1`?
AmpC nodet inh: inconclusive

What do the screens show for `COC(=O)[C@@]1(Cc2ccccc2)[C@H]2c3cc(C(=O)N4CCCC4)n(Cc4cc(F)cc5c4OCOC5)c3C[C@H]2CN1C(=O)c1ccccc1`?
AmpC nodet inh: 138%

What do the screens show for `Clc1ccc(C2=CSC3=NCCN23)cc1Cl`?
AmpC nodet inh: -9%

How did Cc1nnc2c3ccccc3c(-c3ccccc3)nn12 do in these assays?
AmpC nodet inh: 25%

What do the screens show for `CCOc1ccc(NC(=O)C2CSC(c3ccncc3)=N2)cc1` (stereo unspecified)?
AmpC nodet inh: 26%

What do the screens show for `COc1cc(C(=O)N(CCc2ccccc2)C2CC3CCC(C2)N3C)cc(OC)c1OC` (stereo unspecified)?
AmpC nodet inh: -10%

How did CCN(CC)c1ccc2c(c1)OC(N)=C(C#N)C2c1cccnc1 (stereo unspecified) do in these assays?
AmpC nodet inh: 23%

Results for CC(CCCC(C)(C)O)NCCO (stereo unspecified) ?
AmpC nodet inh: -4%

What do the screens show for `C=CCn1c(O)c(C(C)=NCCN2CCOCC2)c(=O)[nH]c1=O`?
AmpC nodet inh: -2%

How did CCOC(=O)N1CCC(NC(=O)c2ccc(CS(=O)(=O)c3ccc(OC)cc3)o2)CC1 do in these assays?
AmpC nodet inh: 4µM*[single pt active]

What do the screens show for `CCCn1c(SCC(=O)/C(C#N)=C(\C)N)n[nH]c1=O`?
AmpC nodet inh: -7%

What do the screens show for `COc1ccccc1OCC(=O)N1CCNC1=O`?
AmpC nodet inh: 10%

Results for CCOc1cc(/C=C(/C#N)c2ccc(F)cc2)ccc1OCc1ccc(C(=O)O)o1 ?
AmpC nodet inh: 54%

What do the screens show for `CCOC(=O)C1CCCN(C(=O)c2cc(-c3ccccc3)on2)C1` (stereo unspecified)?
AmpC nodet inh: 27%

Results for CSCCC(NC(=O)c1cncc(Br)c1)C(=O)O (stereo unspecified) ?
AmpC nodet inh: 78%

Results for O=C(NCCc1ccccc1)C1CCCN(C(=O)NC2CCCCC2)C1 (stereo unspecified) ?
AmpC nodet inh: 18%

Results for O=C(Cn1c(=O)oc2ccccc21)N1CCCCC1 ?
AmpC nodet inh: -17%

How did COCCCn1c2nc3ccccc3nc2c2c(=O)n(Cc3ccccc3Cl)cnc21 do in these assays?
AmpC nodet inh: 27%

How did Cc1cccc(NC(=O)Cn2c(=O)oc3ccccc32)c1 do in these assays?
AmpC nodet inh: -7%

Results for CCCCCCCCCCCCC/C=C\[C@@H](O)[C@H](CO)NC(C)=O ?
AmpC nodet inh: 81%

How did COc1ccc(S(=O)(=O)N[C@@H](CC(C)C)C(=O)O)cc1 do in these assays?
AmpC nodet inh: -6%

How did O=C(COC(=O)c1cnccn1)c1ccccc1 do in these assays?
AmpC nodet inh: -9%

Results for O=C(Nc1nc(-c2ccc3c(c2)OCO3)cs1)C1COc2ccccc2O1 (stereo unspecified) ?
AmpC nodet inh: 10µM*

What do the screens show for `O=C(Cn1c(=O)oc2ccccc21)N1CCN(c2ccccc2)CC1`?
AmpC nodet inh: -4%

What do the screens show for `O=C(COC(=O)c1ccccc1)NCc1ccco1`?
AmpC nodet inh: -3%

How did Cc1onc(-c2ccccc2Cl)c1C(=O)N1CC(C)OC(C)C1 (stereo unspecified) do in these assays?
AmpC nodet inh: -2%

Results for COc1ccc(CN2C(=O)C(O)(CC(=O)c3c(C)n[nH]c3C)c3ccccc32)cc1OC (stereo unspecified) ?
AmpC nodet inh: 28%

What do the screens show for `Cc1nc2cnc(Oc3ccccc3)nc2n(CCc2ccccc2)c1=O`?
AmpC nodet inh: 18%

Results for COC(=O)COC(=O)c1ccc(Oc2nc(OC)nc(N(C)C)n2)cc1 ?
AmpC nodet inh: 51%

How did COc1cccc(Nc2ncc3nc(C)c(=O)n(CCc4ccccc4)c3n2)c1 do in these assays?
AmpC nodet inh: 28%

How did CC[C@]1(O)C(=O)OCc2c1cc1n(c2=O)Cc2cc3ccccc3nc2-1 do in these assays?
AmpC nodet inh: -6%

How did COc1ccc(-c2nc(C#N)c(NCC3CCCO3)o2)cc1 (stereo unspecified) do in these assays?
AmpC nodet inh: 18%

Results for Cc1nnc(SCc2nnc(-c3ccc(Cl)cc3)o2)n1-c1ccccc1 ?
AmpC nodet inh: 57%

What do the screens show for `CCn1c(=O)c(C(=O)Nc2ccccc2S(N)(=O)=O)c(O)c2ccccc21`?
AmpC nodet inh: 66%

What do the screens show for `CCSc1nc2c(c(=O)n1-c1ccc(F)cc1)SCC2`?
AmpC nodet inh: 4%

What do the screens show for `Cc1nonc1OCCn1nnnc1N`?
AmpC nodet inh: -7%

What do the screens show for `N#Cc1cccc(-c2cncnc2NCc2ccccc2)c1`?
AmpC nodet inh: 18%

What do the screens show for `c1cc(CN2CCCC3(CCNCC3)C2)ccn1`?
AmpC nodet inh: 36%

How did O=C(c1ccc2snnc2c1)N1CCOCC1 do in these assays?
AmpC nodet inh: 4%

Results for COc1ccc(NC(=O)CSC2CC(=O)N(c3ccc4c(c3)OCCO4)C2=O)cc1 (stereo unspecified) ?
AmpC nodet inh: -1%

How did O=C(NCc1ccc(F)cc1)c1noc2c1CCCCC2 do in these assays?
AmpC nodet inh: -10%

What do the screens show for `CC(C)=C(NC(=O)c1ccco1)C(=O)NCCc1nc2ccccc2[nH]1`?
AmpC nodet inh: -11%

How did O=C(Nc1nc(-c2ccc3c(c2)OCO3)cs1)C1CC1 do in these assays?
AmpC nodet inh: 1%

What do the screens show for `Cc1c(C(=O)Nc2cccc(Cl)c2)oc2ccc(S(=O)(=O)N3CCC4(CC3)OCCO4)cc12`?
AmpC nodet inh: 64%

What do the screens show for `O=C(O)c1ccc(NCc2cccnc2)cc1`?
AmpC nodet inh: 3%

Results for O=C(O)CCCN1C(=O)NC2NC(=O)NC21 (stereo unspecified) ?
AmpC nodet inh: -4%

What do the screens show for `CCCCS(=O)CC(O)COc1ccc(C(C)(C)C)cc1` (stereo unspecified)?
AmpC nodet inh: 72%

What do the screens show for `C/C(N)=C(/C#N)C(=O)COc1ncnc2ccccc12`?
AmpC nodet inh: -14%

How did CCC(C)(C)n1nnnc1C(c1ccc(Cl)cc1)N1CCN(C)CC1 (stereo unspecified) do in these assays?
AmpC nodet inh: 20%

How did CCCOCCOC(=O)C1=C(C)NC(=O)NC1c1cc(Cl)c(O)c(OC)c1 (stereo unspecified) do in these assays?
AmpC nodet inh: 6%

Results for CCC[C@@H]1C[C@@]1(CCC)[C@@H](NC(=O)c1ccccc1)c1ccc(C(=O)OC)cc1 ?
AmpC nodet inh: -9%

Results for CCCC(=O)NCCc1cc2ccc(C)c(C)c2[nH]c1=O ?
AmpC nodet inh: 10%

How did O=C(Cc1ccc(-c2ccccc2)cc1)NCCN1CCOCC1 do in these assays?
AmpC nodet inh: 65%

How did Nc1c(C(=O)NCC2CCCO2)sc(=S)n1-c1ccccc1 (stereo unspecified) do in these assays?
AmpC nodet inh: 4%

Results for Cn1c(O)c(C(=NCCN2CCCCC2)c2ccccc2Cl)c(=O)n(C)c1=O ?
AmpC nodet inh: -1%

How did CC(NC(=O)c1noc2c1CCCCC2)c1ccccc1 (stereo unspecified) do in these assays?
AmpC nodet inh: 4µM*[single pt active]

How did CCCCC(=O)NC1=NC(=O)C(C)(C)S1 do in these assays?
AmpC nodet inh: -7%

Arranged by number of heavy atoms (descending): part of the list above.
What do the screens show for `Cc1c(C(=O)Nc2cccc(Cl)c2)oc2ccc(S(=O)(=O)N3CCC4(CC3)OCCO4)cc12`?
AmpC nodet inh: 64%

Results for CCC[C@@H]1C[C@@]1(CCC)[C@@H](NC(=O)c1ccccc1)c1ccc(C(=O)OC)cc1 ?
AmpC nodet inh: -9%

Results for Cn1c(O)c(C(=NCCN2CCCCC2)c2ccccc2Cl)c(=O)n(C)c1=O ?
AmpC nodet inh: -1%

How did CCCOCCOC(=O)C1=C(C)NC(=O)NC1c1cc(Cl)c(O)c(OC)c1 (stereo unspecified) do in these assays?
AmpC nodet inh: 6%

How did O=C(Cc1ccc(-c2ccccc2)cc1)NCCN1CCOCC1 do in these assays?
AmpC nodet inh: 65%

How did Nc1c(C(=O)NCC2CCCO2)sc(=S)n1-c1ccccc1 (stereo unspecified) do in these assays?
AmpC nodet inh: 4%

What do the screens show for `CCCCS(=O)CC(O)COc1ccc(C(C)(C)C)cc1` (stereo unspecified)?
AmpC nodet inh: 72%

What do the screens show for `C/C(N)=C(/C#N)C(=O)COc1ncnc2ccccc12`?
AmpC nodet inh: -14%

What do the screens show for `O=C(O)c1ccc(NCc2cccnc2)cc1`?
AmpC nodet inh: 3%

Results for O=C(O)CCCN1C(=O)NC2NC(=O)NC21 (stereo unspecified) ?
AmpC nodet inh: -4%

How did CCCCC(=O)NC1=NC(=O)C(C)(C)S1 do in these assays?
AmpC nodet inh: -7%
